# Bioassay records (PubChem BioAssay)
# hNpr1 antagonist: human Npr1 receptor antagonism; AID 1347048; P16066; HEK293 hNpr1 GloSensor cGMP, ANP-stimulated luminescence; 76,000 tested, 1.6% active; Potency, µM (highest dose often 46.3 µM), for the others: top-dose activity change, negative = inhibition, hits mostly inhibitors; active = well fitted inhibition curve with a large enough effect; inconclusive = small, poorly fitted or top-dose-only effect; inactive = no such curve, though single readings can be large or run the other way;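 note: nearly all actives have a fitted effect of over 60% in size; nearly all hits also lower the signal before the agonist is added; a reference antagonist and vehicle were the controls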
# Target sequence (P16066 whole entry, looked up): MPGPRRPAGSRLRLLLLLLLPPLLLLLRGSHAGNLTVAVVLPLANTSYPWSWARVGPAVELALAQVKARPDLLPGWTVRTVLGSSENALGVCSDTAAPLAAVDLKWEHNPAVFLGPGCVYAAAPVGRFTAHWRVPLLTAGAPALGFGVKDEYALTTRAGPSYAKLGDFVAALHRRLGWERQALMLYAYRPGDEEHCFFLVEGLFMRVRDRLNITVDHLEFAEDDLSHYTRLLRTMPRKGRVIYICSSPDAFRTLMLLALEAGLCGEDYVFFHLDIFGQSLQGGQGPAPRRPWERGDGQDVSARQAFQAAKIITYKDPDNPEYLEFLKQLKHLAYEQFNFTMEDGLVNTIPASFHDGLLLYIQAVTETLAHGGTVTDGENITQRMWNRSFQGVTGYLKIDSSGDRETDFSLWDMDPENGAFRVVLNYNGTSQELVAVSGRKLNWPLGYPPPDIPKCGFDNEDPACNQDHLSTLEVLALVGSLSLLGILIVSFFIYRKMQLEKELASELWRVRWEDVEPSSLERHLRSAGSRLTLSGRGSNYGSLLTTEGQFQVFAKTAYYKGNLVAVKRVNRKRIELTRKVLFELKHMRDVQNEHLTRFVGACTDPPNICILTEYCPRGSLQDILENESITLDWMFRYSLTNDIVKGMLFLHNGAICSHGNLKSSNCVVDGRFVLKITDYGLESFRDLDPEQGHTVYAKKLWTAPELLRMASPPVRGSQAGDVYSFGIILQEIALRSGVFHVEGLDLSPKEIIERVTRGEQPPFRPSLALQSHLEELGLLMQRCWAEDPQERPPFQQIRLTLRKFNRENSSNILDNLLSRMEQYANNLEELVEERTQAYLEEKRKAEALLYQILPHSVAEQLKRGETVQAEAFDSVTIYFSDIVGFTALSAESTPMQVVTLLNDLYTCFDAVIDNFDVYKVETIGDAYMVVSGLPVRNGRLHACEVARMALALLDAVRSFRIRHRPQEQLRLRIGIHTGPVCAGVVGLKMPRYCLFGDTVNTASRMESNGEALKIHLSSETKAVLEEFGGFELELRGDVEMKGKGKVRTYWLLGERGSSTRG
#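 HEK293 cells stably expressing human Npr1 and cGMP GloSensor pGS-40F, loaded 2 h with 2% GloSensor reagent, given compound 30 min at room temperature. Luminescence read before and 20 min after 0.1 nM hNppA.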
# Starred values were filed as active, the others as inactive; ? = inconclusive; & = joins results of further samples; [ ] = remark or other dose. % is set by controls: 0 for no effect and ±100 for the full control effect; potency is the fitted concentration of half-maximal effect. An excerpt; count on the stated rates, not on these rows.
hNpr1 antagonist | smiles
1.9% | CCn1cc(C(=O)N2CCC3(CCCN(C)C3=O)C2)cn1 (stereo unspecified)
? | COc1ccccc1CNC[C@@H]1C=C(C)[C@H](Cc2nc3c(C)cccc3[nH]2)C[C@H]1C(C)C
0.0% | C1CC2(CCN1)CC(OCC1CC1)CCO2 (stereo unspecified)
-26.1% | Cc1ccc(CNC(=O)c2ccc(-c3ccc(N4CCSCC4)nc3)cc2)o1
0.4% | O=C(N[C@@H]1CCN(C(=O)c2n[nH]c3c2CCC3)C[C@H]1O)c1cccnc1
-0.7% | COc1cc2c(cc1OC)C(C[C@H]1CN(S(=O)(=O)c3ccc(F)cc3)CC[C@H]1CC(=O)O)=NCC2
0.1% | CCOc1ccc(C(=O)N[C@@H]2CN(c3ncccn3)C[C@H]2CO)cc1
7.9% | CC(C)NC(=O)N1CCCC1c1nc(CCOCC2CC2)no1 (stereo unspecified)
-10.1% | Cc1cnc(C(=O)N2CCC(c3nc(CCOc4ccc(F)cc4)no3)C2)cn1 (stereo unspecified)
-16.5% | O=C(NCc1ccccc1)C1CCC(=O)N1C1CCN(C(=O)c2ccccc2F)CC1 (stereo unspecified)
15.5% | CC(=O)N1CCC([C@@H]2CN(C(=O)COc3ccccc3)C[C@H]2CO)CC1
-1.9%[70.6 µM] | CCOc1nccn2c(-c3ccc(CNC(=O)Cn4cnnn4)cc3)cnc12
-0.4%[70.6 µM] | O=C1OC[C@@H]2CCN(Cc3ccc(C(F)(F)F)cc3)Cc3ccc(F)cc3N12
5.1%[70.6 µM] | COc1ccc(-c2cc(CC3(NCc4ccccc4)COC3)no2)cc1
-1.5% | CN(Cc1ccccc1)Cc1cn([C@H]2CO[C@H]3[C@@H]2OC[C@@H]3NC(=O)NCc2ccccc2)nn1
-8.6% | CC(C)c1nc2nccc(-c3cccs3)n2n1
0.0% | Cc1ccc(-n2c(C3CCN(C(=O)c4ccccc4)CC3)n[nH]c2=O)cc1
-13.8% | O=C(c1ccc2oc(-c3ccc(C(F)(F)F)cc3)nc2c1)N1CCOCC1
-16.0% | COc1ccc(-c2cc(N3CCN(C(=O)c4cccc(C)c4)CC3)n[nH]2)cc1
-1.4% | Cc1noc(C)c1C(=O)N1CCCN(S(=O)(=O)c2ccccc2)CCC(=O)NCC1
-0.6% | CN1C(=O)Cc2cc(C(=O)NC3CCCCC3)ccc21
1.9% | O=C(c1ccccc1F)N1CCC(Oc2ccccc2)C1 (stereo unspecified)
8.1% | COc1cccc(N2CC(C)N(C(=O)Cc3c(C)nc(N)nc3C)CC2=O)c1 (stereo unspecified)
4.6% | CN1[C@@H](CCC(=O)N2CCN(c3ccccn3)CC2)CNC(=O)[C@@H]2[C@H]1CCN2Cc1csnn1
-1.0% | Cc1ccc2nc(CN3CCCC(CO)(CC4CC4)C3)cn2c1 (stereo unspecified)
1.4% | O=C(c1scc2c1OCCO2)N1CCCC(N2CCN(c3cccc(Cl)c3)CC2)C1 (stereo unspecified)
-14.1%[70.6 µM] | Cc1noc(C)c1-c1cc2cc(CO)oc2c(NCCOc2ccccc2)n1
12.6µM* | COc1ccc(C)cc1NC(=O)Cn1c(N(C)Cc2ccccc2)nc(C)cc1=O
? | Nc1ncccc1CN1CCc2ncc(C(=O)NCc3ccccc3)n2CC1
-20.2% | Cc1noc(C)c1CC(=O)N1CCC(OCCOc2ccc(F)cc2)CC1

# Some of these compounds in order of their number in hNpr1 antagonist, smallest number first.
SMILES | hNpr1 antagonist
Cc1noc(C)c1CC(=O)N1CCC(OCCOc2ccc(F)cc2)CC1 | -20.2%
COc1ccc(-c2cc(N3CCN(C(=O)c4cccc(C)c4)CC3)n[nH]2)cc1 | -16.0%
COc1cc2c(cc1OC)C(C[C@H]1CN(S(=O)(=O)c3ccc(F)cc3)CC[C@H]1CC(=O)O)=NCC2 | -0.7%
Cc1ccc(-n2c(C3CCN(C(=O)c4ccccc4)CC3)n[nH]c2=O)cc1 | 0.0%
O=C(c1scc2c1OCCO2)N1CCCC(N2CCN(c3cccc(Cl)c3)CC2)C1 (stereo unspecified) | 1.4%

# The list goes on:
hNpr1 antagonist | smiles
0.6% | O=C(O)C[C@@H]1CCN(C(=O)Cc2ccccc2)C[C@@H]1CCN1CCN(c2cccc(C(F)(F)F)c2)CC1
-9.4% | CN(CC1CCOCC1)C(=O)C1CCC1
1.4% | Cn1nccc1C(=O)N1CCC(c2noc(-c3cnccn3)n2)C1 (stereo unspecified)
1.7% | CNC(=O)[C@@H]1CN(C(=O)NCc2ccc(C)cc2)C[C@H]1c1nc(C)no1
-5.6% | COc1cccc(-c2cc(C(=O)N[C@@H](C)c3ncccc3C)[nH]n2)c1
-1.1% | O=C(NCc1nnc2n1CCC2)c1ccc2nc(-c3ccc(F)cc3)cn2c1
22.3% | CCc1cccc(NC(=O)C2CCN(C(=O)c3nnn4cc(C)[nH]c(=O)c34)CC2)c1
-4.8% | CN1[C@@H](CCC(=O)NCc2cccs2)CNC(=O)[C@@H]2[C@H]1CCN2Cc1ccc(S(C)(=O)=O)cc1
-1.0%[70.6 µM] | O=C1CCCCCN1C1CCN(Cc2ccccc2)CC1
3.0% | NC(=O)CN1CCC(c2nc(-c3cn4ccccc4n3)no2)CC1
-1.2% | CC(C)N1C(=O)C2(CCCC2)C1C(=O)Nc1ccccc1 (stereo unspecified)
2.9%[70.6 µM] | O=C(CC[C@@H]1CNC(=O)[C@@H]2C[C@H](NCc3ccccn3)CN12)NCc1ccc(F)cc1
0.2% | COC(=O)C1=CN(CC(=O)Nc2c(C)cccc2C)S(=O)(=O)N=C1C
0.3% | Cc1oc2c(c1C(=O)NC1CCOC3(CCOCC3)C1)C(=O)CCC2 (stereo unspecified)
-5.3%[70.6 µM] | COc1ccccc1-c1cc(-c2cccc([S+](C)(=O)[O-])c2)c2onc(C)c2n1
-26.2% | CCN(CC)C(=O)Cc1cccn1-c1ccc(Cl)cc1
? | CCc1ccccc1NC(=O)CC1CCN(c2ccnc(OC)n2)CC1
-7.8% | O=C(Nc1nn(-c2cccc(F)c2)c2cccc(N3CCOC3=O)c12)C1CCC1
-4.5% | COc1ccc(C(=O)N2C[C@@H]3C[C@H](C2)c2ccc(NS(=O)(=O)c4ccccc4C#N)c(=O)n2C3)cc1
-0.1% | Cc1ncccc1C(=O)N1CCC(COc2ccc3c(cnn3CC[S+](C)(=O)[O-])c2)CC1
0.3% | C[S+](=O)([O-])N1CCN(C(=O)N2CC3CC(C2)[C@H]2CCCC(=O)N2C3)CC1 (stereo partly specified)
-6.2% | CN1CC2(CCN(Cc3cn[nH]c3-c3cccs3)CC2)CC1C(=O)N1CCOCC1 (stereo unspecified)
-11.6% | O=C(COc1ccc(F)cc1)N1CCN(c2cc(C(F)(F)F)ncn2)CC1
4.3%[70.6 µM] | CC1=C[C@@H](CNC(=O)CCCC(=O)O)[C@H](C(C)C)C[C@H]1Cc1nc2c(C)cccc2[nH]1
-7.5% | COc1ccc(CNC(=O)CCc2conc2-c2ccc(C)cc2)cc1
-0.6% | NCC1CCCN(Cc2ccc(-c3nc(CCn4cccn4)cc(=O)[nH]3)cc2)C1 (stereo unspecified)
1.9% | Cc1ccc(-c2cc(N3CCC(CNC(=O)c4ccc(=O)[nH]c4)CC3)n[nH]2)cc1
-5.6% | COc1cccc(C(=O)NCC2(COc3ccc(C(F)(F)F)cn3)C[C@@H](O)[C@@H](O)C2)c1 (stereo partly specified)
-20.3% | COc1cc(OC)cc(OCc2nc3c(n2Cc2ccccc2)C(=O)N(Cc2ccccc2C#N)CCN3)c1
7.4% | CCOCC(=O)NC1CCN(c2cnn(Cc3ccccc3)c(=O)c2)CC1

# Continued, starting with the last 5 of the part before.
hNpr1 antagonist | smiles
-0.6% | NCC1CCCN(Cc2ccc(-c3nc(CCn4cccn4)cc(=O)[nH]3)cc2)C1 (stereo unspecified)
1.9% | Cc1ccc(-c2cc(N3CCC(CNC(=O)c4ccc(=O)[nH]c4)CC3)n[nH]2)cc1
-5.6% | COc1cccc(C(=O)NCC2(COc3ccc(C(F)(F)F)cn3)C[C@@H](O)[C@@H](O)C2)c1 (stereo partly specified)
-20.3% | COc1cc(OC)cc(OCc2nc3c(n2Cc2ccccc2)C(=O)N(Cc2ccccc2C#N)CCN3)c1
7.4% | CCOCC(=O)NC1CCN(c2cnn(Cc3ccccc3)c(=O)c2)CC1
-0.6% | COc1ccc(-c2noc(-c3cccn3CC(=O)NCCC3=CCCCC3)n2)cc1F
-12.7% | COc1cc(OCc2ccccc2)ccc1CN1C[C@@H]2CCN[C@@H]2C1
0.0% | O=C(NCCc1noc(C2CC2)n1)c1ccc(OC(F)(F)F)cc1
-3.3% | COC(=O)[C@@H]1Cc2ncn(Cc3ccc(Cl)cc3)c2CN1C(=O)COc1ccccc1
-1.3% | Cc1ccc(OCc2nc(C3CCCCN3)no2)cc1 (stereo unspecified)
-1.2% | CCN1CCCC1CNC(=O)CC[C@H]1NC(=O)c2ccccc2NC1=O (stereo partly specified)
9.3% | COc1ccc(CNC(=O)N2CCCC(Cc3noc(-c4ccccn4)n3)C2)cc1 (stereo unspecified)
6.8% | Cc1ccc(OC2(C(=O)O)CCN(Cc3ccc(CO)o3)CC2)cc1
-2.2% | CCC(=O)N(C1CCOCC1)C1CCN(S(=O)(=O)c2ccc(C(C)C)cc2)CC1
0.5% | COc1ccc(NC(=O)[C@H]2CCC[C@H]2NC(=O)c2cnc(C)cn2)cc1
-0.3%[70.6 µM] | O=C(C1CCOCC1)N1CC(CNc2ccccc2)C2(C1)CN(c1ccccc1)C2 (stereo unspecified)
3.1% | O=C(CC1CCCCC1)N1CC(F)(F)C[C@H]1c1nnc(C2CC2)o1
-0.6% | CC(=O)NC(CO)C(=O)N1CCc2[nH]nc(-c3ccc(F)c(F)c3)c2C1 (stereo unspecified)
-7.5% | Cc1noc([C@H]2CCN(S(=O)(=O)c3cn(C)cn3)C[C@H]2NC(=O)C2CC2)n1
-5.8% | COc1ccc(NC(=O)N2C[C@@H]3C[C@H](C2)c2ccc(NC(=O)c4ccccn4)c(=O)n2C3)cc1
3.8% | COC[C@@H]1CN(c2ncccn2)C[C@H]1C(=O)N1CCc2ccccc21
5.7%[70.6 µM] | COc1ccc(NC(=O)N[C@H]2[C@H](O)[C@@H](N(C)CCc3ccccn3)[C@@H]3OC[C@H]2O3)cc1
-15.5% | Cc1ccc(-c2cc3c(=O)n(CCNC(=O)c4cccc5[nH]ccc45)ccn3n2)cc1C
-18.8% | Cc1ccc([S+](=O)([O-])N2CCC(c3nn(-c4ccccc4)c(=O)[nH]3)CC2)cc1
1.7% | Cc1noc(C2CC3(CCN(C(=O)c4cccn4C)CC3)CN2C)n1 (stereo unspecified)
? | COc1ccc(Nc2ncc(-c3ccccc3OC)c3c2OCC3)cn1
3.6%[70.6 µM] | COC(=O)CO[C@@H]1CO[C@H]2[C@@H]1OC[C@@H]2NS(=O)(=O)c1cccc2cccnc12
-12.4% | CCC1Oc2ccc(NC(=O)Cc3ccc(OC)cc3)cc2CN(Cc2ccc(OC)cc2)C1=O (stereo unspecified)
-10.9% | CC(C)CCNC(=O)C1N(C(C)C)C(=O)C12CCCCC2 (stereo unspecified)
-5.4%[70.6 µM] | O[C@@H]1C[C@@H](c2nc(-c3ccc(F)cc3)no2)N(Cc2ccc(F)cc2)C1
1.5%[70.6 µM] | O=C1CN(CC2CCCC2)CCN1c1ccc(Cl)nn1
14.1µM* | CN(Cc1nc(Cc2ccccc2Cl)no1)Cc1cccc2cnccc12
-7.7% | COc1cccc(CN2CCC3(CNc4ccccc4[S+](=O)([O-])N3)C2)c1 (stereo unspecified)
0.3% | COc1cccc(NC(=O)CN2C(=O)NC3(CCOCC3)C2=O)c1
19.0%&-2.2%[70.6 µM] | O=C(c1cccc(Cl)c1)N1CCC(N2CCCNC2=O)CC1
4.9%[70.6 µM] | O=c1c2nc(-c3cccnc3)ccc2ncn1Cc1ccccc1
-14.5%[70.6 µM] | O=C1COc2ccc(-c3ccccc3F)nc2CN1CCOc1ccccc1
? | COc1ccc(CC(=O)N2CCC[C@H]2c2nc(-c3ccccc3Cl)no2)cc1
-17.2% | CSc1ccc(NC(=O)c2cc3c(N4CCSCC4)nc(C)cn3n2)cc1
4.4% | Cc1cc(C(=O)NCC2CCCN(Cc3nnc(-c4cccnc4)o3)C2)no1 (stereo unspecified)
0.7% | CC1CCN(C(=O)CCC[C@@H]2[C@H]3CCCN4CCC[C@@H](CN2C)[C@@H]34)CC1
2.7% | CC(C)C1CN(C(=O)CN2CCCCC2=O)CCCN1Cc1ccc(F)cc1 (stereo unspecified)
10.4% | COc1ccc2[nH]c3c(c2c1)CCN(C)C31CCNCC1
0.0% | CCc1nc2c(c(-c3ccc(Cl)cc3)n1)CCN(C(=O)c1ccc(C)cc1)CC2
-28.8% | Cc1ccc([S+](=O)([O-])N2CCCCC23Cc2ccccc2NC3=O)cc1 (stereo unspecified)
-4.7% | O=C(N[C@H]1C[C@@H](CO)N(Cc2ccsc2)C1)c1cccnc1
0.2% | OC[C@@H]1CN(CC2CC2)C[C@H]1c1nc(-c2ccncc2)no1
2.3% | Cc1ccc(N2CCC(NC(=O)c3ccc(C#N)cc3)C2=O)cc1 (stereo unspecified)
5.8% | CNC(=O)NC[C@H]1CCN(C2CCSCC2)C[C@H]1N(C)C
1.7%[70.6 µM] | COCc1cc(C[C@@H]2C[C@H](NCc3ccco3)C2(C)C)no1
? | O=C(c1ccccc1F)N1CCC(n2cc(-c3nc(-c4ccccc4)no3)nn2)CC1
14.1µM* | CC(C)c1noc(-c2cn(C3CCN(C(=O)c4ccc(OC(F)(F)F)cc4)C3)nn2)n1 (stereo unspecified)
1.7%[70.6 µM] | CNC(=O)C(C)(C)N1CCC[C@H]1C(=O)N1CCCCCC1
0.2% | CCc1ccccc1S(=O)(=O)N1C[C@H](F)C[C@@H]1C(=O)N1CCOCC1
-0.7% | Fc1cccc(-c2[nH]ncc2CN2CCN(c3cccnc3)CC2)c1
